Bioassay records as filed in PubChem.
GALR2 ag: agonists of human galanin receptor 2 (GALR2); O43603; GALR2-expressing cells, agonist activation read-out; activation, %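 (tested at 5 µM)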; hit rate 0.48% among 140,000;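 active = above mean plus 3 SD of all compounds, about 5% in these data, not always enough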;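 note: 0% = vehicle buffer wells and 100% = reference agonist at full effect; tested in CHO reporter cells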
Target sequence (O43603 whole entry, looked up): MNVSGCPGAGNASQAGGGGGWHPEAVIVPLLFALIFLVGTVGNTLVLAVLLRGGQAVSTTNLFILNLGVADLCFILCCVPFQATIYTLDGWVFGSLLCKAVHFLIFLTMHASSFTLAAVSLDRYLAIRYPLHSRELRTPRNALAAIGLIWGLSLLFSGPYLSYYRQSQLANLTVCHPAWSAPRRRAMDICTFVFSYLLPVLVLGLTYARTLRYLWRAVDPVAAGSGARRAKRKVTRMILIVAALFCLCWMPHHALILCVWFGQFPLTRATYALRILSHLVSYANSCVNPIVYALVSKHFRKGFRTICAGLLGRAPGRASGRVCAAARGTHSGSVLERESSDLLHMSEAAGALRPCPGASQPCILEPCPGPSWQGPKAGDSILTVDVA
PKD1 kinase inh: PKD1 (human) kinase inhibition | hit rate 0.056% among 200,000 | Q15139 | inhibition, %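 (about 10 µM by stock and volumes)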 | PKD1 kinase fluorescence polarization assay;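 active = inhibition of 50% or more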;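 note: controls were vehicle for no effect and a reference inhibitor for full effect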
RGS16-Gao HTS: RGS16-Galphao interaction regulator (human); bead-based flow cytometry RGS16-Galphao binding, fluorescence; actives lie on both sides; binding response (% of control), % at 10 µM; O15492+P09471; hit rate 0.38% among 220,000;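 active = below 25% or above 175%, edge rows of some plates excepted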;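 note: Galphao activated by GDP with aluminum fluoride before binding; 100% = wells without compound and 0% = beads without RGS; some results beyond the cut were filed as inactive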
Target sequence (O15492 whole entry, looked up): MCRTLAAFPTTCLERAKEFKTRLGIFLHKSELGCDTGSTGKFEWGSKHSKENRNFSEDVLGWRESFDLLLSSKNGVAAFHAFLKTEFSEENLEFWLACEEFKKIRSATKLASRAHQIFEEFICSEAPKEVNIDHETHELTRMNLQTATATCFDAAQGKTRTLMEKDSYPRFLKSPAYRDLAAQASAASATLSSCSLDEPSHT
Target sequence (P09471 whole entry, looked up): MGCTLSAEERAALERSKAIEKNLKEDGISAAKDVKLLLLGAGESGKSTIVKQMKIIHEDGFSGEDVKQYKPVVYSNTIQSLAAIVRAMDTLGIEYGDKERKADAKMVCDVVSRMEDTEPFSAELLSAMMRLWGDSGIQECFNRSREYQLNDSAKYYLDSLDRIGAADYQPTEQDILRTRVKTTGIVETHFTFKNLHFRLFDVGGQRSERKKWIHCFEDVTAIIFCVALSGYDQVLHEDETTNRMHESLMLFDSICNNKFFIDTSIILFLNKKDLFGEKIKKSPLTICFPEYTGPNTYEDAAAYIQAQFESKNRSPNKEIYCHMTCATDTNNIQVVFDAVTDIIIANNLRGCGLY
Insulin prom inh: TRM-6 insulin promoter activity inhibition | AID 1273 | TRM-6 cells (human fetal islet line), insulin promoter-eGFP reporter, imaging; reporter expression induced with tamoxifen | inhibition, % at 2 µM | hit rate 0.9% among 130,000;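 active = inhibition above the mean plus 3 SD, with well images judged a real hit on visual review, cut at about 60% in these data, passing the limit was not always enough; inconclusive = inhibition over the cutoff but images rejected on review; inactive = inhibition not above the cutoff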
HSV augment: HSV replication enhancement; HSV replication augmentation in cells, fold increase; maximum fold increase; hit rate 0.005% among 220,000; AID 1956;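 active = peak rise of 1.5-fold or more in the series; inconclusive = self-fluorescent or not available for retest; tested in PC3 cells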;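 note: first round at 10 µM; read as green reporter fluorescence; hits show the peak of a series up to 25 µM; 1 = signal of infected wells without compound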
Insulin prom inh cell count: second read-out of Insulin prom inh, no call of its own (marks repeat the call); normalized cell count, %; measured here: cell count, toxicity; reference of the scale not given here;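 cells exposed to compound for 48 h; stained nuclei by imaging scaled within each plate; lower means fewer cells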
HSV augment primary fold: also measured in HSV augment; calls as there; fold increase; compound at 10 µM; measured here: primary screen fold increase 10 uM; tested in PC3 cells;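 GFP signal in the first replicate; 1 = infected wells without compound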
Numbers without * were called inactive; i = inactive; ? = inconclusive; . = not tested or not shown.

Compound,GALR2 ag,PKD1 kinase inh,RGS16-Gao HTS,Insulin prom inh,Insulin prom inh cell count,HSV augment,HSV augment primary fold
Cn1c2ccccc2c2cnn(CC(=O)Nc3ccccc3Br)c(=O)c21,.,.,108,.,.,i,1
COCCCNC(=S)N1CCCN(c2nc3cc(C)c(C)cc3cc2C#N)CC1,.,-10,101,.,.,i,0.97
O=[N+]([O-])c1ccc(Nc2nc(N/N=C/c3cccc(F)c3)nc(N3CCCC3)n2)cc1,-1.4,6,122,-19,42,i,0.94
CCSc1nc2c(c(=O)[nH]1)C(c1ccncc1)C(C(=O)OC(C)C)=C(C)N2 (stereo unspecified),-2.3,-16,106,33,42,i,0.98
Cc1cc(C(=O)NCc2cccnc2)cs1,-1.1,-2,106,12,97,i,1.2
O=C(NCCCN1CCCC1=O)c1cc(NS(=O)(=O)c2ccc(F)cc2)cc(NS(=O)(=O)c2ccc(F)cc2)c1,-2.3,-3,99,.,.,i,0.87
CCc1ccc(NC(=O)c2cc(-c3cccs3)on2)cc1,.,-11,98,.,.,i,1
Cn1cc(C(=O)N/N=C/c2cc(Br)cs2)c2ccccc21,.,.,106,.,.,i,1
OCCC1CN(Cc2cccn2-c2cccnc2)CCN1Cc1ccccc1 (stereo unspecified),.,2,104,.,.,i,1
CCCn1nc2cc(C(=O)NCc3ccccc3OC)ccc2c1OCC,-2.6,4,99,.,.,i,0.86
Cc1cc(C)cc(C(=O)NCC(=O)OCC(=O)N2CCCCC2)c1,.,-2,117,-55,108,i,1
CN1C(=O)S/C(=C/c2cccn2-c2cccc(C(=O)O)c2)C1=O,.,2,101,.,.,i,1
O=C(CSC1=NC(=O)C(c2ccccc2)C(=O)N1)Nc1cccc(Cl)c1 (stereo unspecified),-1.9,2,50,0,130,i,1
O=C(COc1ncnc2ccccc12)N1CCN(c2ccccc2)CC1,.,3,103,.,.,i,0.97
Cn1c(SCc2nc3ccccc3c(=O)[nH]2)nc2ccccc21,.,-5,101,.,.,i,0.83
CN(C)S(=O)(=O)CC12CCC(CC1=O)C2(C)C (stereo unspecified),-0.6,-7,102,-52,104,i,1
Cc1cc(C(=O)Nc2cccnc2Cl)on1,-0.5,5,95,73,61,i,1.1
C/C(=N/O)c1cc(C(C)(C)C)c(O)c(C(C)(C)C)c1,3.7,-4,102,42,102,i,1
CCC1CCc2c(sc3ncnc(N4CCOCC4)c23)C1 (stereo unspecified),1.6,-2,97,17,159,i,0.86
Cc1csc(NC(=O)c2ccc(Cl)cc2[N+](=O)[O-])n1,.,-8,103,.,.,i,0.94
O=C1CCC/C(=N/NC(=O)c2sc3ccccc3c2Cl)C1,.,.,103,.,.,?,.
O=C(NN1C(=O)C2C3C=CC(C3)C2C1=O)c1cccc(Cl)c1 (stereo unspecified),-0.7,5,98,-8,106,i,0.98
Cc1cc(=O)n(CC(C)C)c(O)c1C#N,-0.9,-7,105,-19,88,i,1.1
O=C(Cn1cc2c(n1)CCCC2)Nc1cc(-c2cccc(Cl)c2)no1,-1.1,-5,106,40,91,i,0.73
COCCCNC(=O)c1c(N)n(-c2cccc(S(N)(=O)=O)c2)c2nc3ccccc3nc12,3.2,-4,100,-7,15,i,0.86
CCOc1ccc(OCC)c(NC(=O)c2[nH]c(C)c(C(C)=O)c2C)c1,-3.3,12,98,0,103,i,1
C=C(C)C1CC=C(C)/C(=N\NC(=S)Nc2ccc(C)cc2)C1 (stereo unspecified),-0.3,-3,105,6,124,i,0.91
Cn1c(=O)c2c(n3cnnc13)-c1ccccc1CC21CCCC1,-0.5,9,121,-344,122,i,0.79
C[C@@H]1C[C@H](O)c2cc(Cl)ccc2N1,-1.0,-1,98,57,121,i,0.99
CC(C)C(NC(=O)C1CCC(C(C)(C)C)CC1)C(=O)NCCCN1CCCCC1 (stereo unspecified),.,4,109,-55,127,i,1.1
COC(=O)c1ccccc1NC(=O)CN1CCC(C)CC1,.,-10,101,.,.,i,0.9
COc1ccc(-n2cnnc2SCC(=O)NCc2cccs2)cc1,2.1,-1,104,-15,77,i,0.99
Cc1ccc(C(OC(=O)c2ccco2)C(=O)NCc2cccs2)cc1 (stereo unspecified),-1.2,3,98,-6,59,i,1
Cc1ccc(S(=O)(=O)N2CCCC(NC(=O)N3CCN(c4ccccc4)CC3)C2)cc1 (stereo unspecified),-3.4,-30,106,-60,131,i,1
CCCCC(C(=O)NC(=O)NCc1ccccc1)N1C(=O)c2ccccc2C1=O (stereo unspecified),-1.2,2,107,-19,95,i,1.1
O=C(CC(c1ccc(F)cc1)c1ccco1)N1CCOCC1 (stereo unspecified),-2.4,4,95,-6,152,.,.
COc1ccc(C2C(C(=O)N3CCCCC3)CC(=O)N2c2ccc(OC)cc2)cc1 (stereo unspecified),-0.1,-5,104,-45,83,i,0.82
Cc1ccc(OCc2ccc(C(=O)Nc3nc4ccccc4n3Cc3ccccc3)o2)c([N+](=O)[O-])c1,-2.0,-9,105,18,122,i,0.93
CCSc1nnc(NC(=O)CSc2nnc(CNC(=O)c3ccc(OC)cc3)o2)s1,-0.2,-13,108,12,136,i,0.95
CC(C)(C)n1nnnc1CN1CCSCC1,0.5,-4,89,-18,267,i,0.91

Entries of single compounds, looked up by structure. Order of values: GALR2 ag, PKD1 kinase inh, RGS16-Gao HTS, Insulin prom inh, Insulin prom inh cell count, HSV augment, HSV augment primary fold
Shown for `C[C@@H]1C[C@H](O)c2cc(Cl)ccc2N1` : -1.0, -1, 98, 57, 121, i, 0.99
Shown for `O=C(CC(c1ccc(F)cc1)c1ccco1)N1CCOCC1` (stereo unspecified) : -2.4, 4, 95, -6, 152, ., .
Shown for `COC(=O)c1ccccc1NC(=O)CN1CCC(C)CC1` : ., -10, 101, ., ., i, 0.9
Shown for `Cc1cc(=O)n(CC(C)C)c(O)c1C#N` : -0.9, -7, 105, -19, 88, i, 1.1

Remaining list, next part
Compound,GALR2 ag,PKD1 kinase inh,RGS16-Gao HTS,Insulin prom inh,Insulin prom inh cell count,HSV augment,HSV augment primary fold
C=CCSc1nnc2c(n1)OC=Nc1ccc(Br)cc1-2,-1.0,-5,109,-44,89,i,0.94
O=C(Nc1ccc(O)cc1)c1cc(S(=O)(=O)N2CCCC2)ccc1Cl,-1.0,-3,106,61,140,i,0.8
CCOC(=O)c1cccc(NC(=O)CSc2nc3ccccc3c(=O)n2CCOC)c1,-0.4,-7,-10,-26,81,i,0.91
S=C(NNc1ccnc2cc(Cl)ccc12)Nc1ccc(Cl)cc1Cl,.,.,95,.,.,i,0.96
Cc1nn(CC(=O)O)c(C)c1[N+](=O)[O-],.,-2,99,.,.,i,0.9
CCN(CC)c1ccc(CNc2nc3ccccc3n2CCN2CCCCC2)cc1,.,-9,99,-20,77,i,0.81
CCO/C=C/C(=O)N(C)CCC#N,-1.2,-3,101,20,100,i,0.98
O=C(O)/C=C/c1cn(-c2ccccc2)nc1-c1ccc(-c2ccc([N+](=O)[O-])cc2)o1,.,.,95,.,.,i,0.98
Cc1ccc(-c2csc3nc(CSc4nnc(-c5ccc(Cl)cc5)n4C)[nH]c(=O)c23)cc1,-1.3,2,104,-69,137,i,1
Cc1nn(C)c(C(=O)Nc2ccc(Cl)c([N+](=O)[O-])c2)c1Cl,-0.9,-2,116,.,.,i,0.91
N#Cc1nc(COc2cccc(Cl)c2)oc1NCc1ccco1,-0.8,11,105,.,.,i,0.94
CCN1CCN(S(=O)(=O)c2ccc3[nH]c(=O)oc3c2)CC1,-2.5,-2,231,.,.,i,1.1
CC1(C)CC(=O)C2=C(C1)Nc1cc(C(=O)c3ccccc3)ccc1NC2c1ccccn1 (stereo unspecified),-1.0,-6,103,30,93,i,0.96
CCOc1ccc(S(=O)(=O)N2CCN(c3ccccc3OC)CC2)c2cccnc12,0.3,-2,105,-21,93,i,0.86
CC(C)c1ccc(NC(=O)C2CC(=O)N=C(N)S2)cc1 (stereo unspecified),-0.6,-3,109,19,155,i,0.96
CCOC(=O)c1c(-c2ccc(OC)cc2)csc1NC(=O)CCN1CCOCC1,.,-3,98,.,.,i,1.1
Cc1ccc(N=C2NC(=O)/C(=C/c3cccs3)S2)cc1C,1.7,-10,100,20,106,i,1.1
S=c1nc[nH]c2c1cnn2-c1ccccc1,.,.,93,.,.,i,0.94
CN(C(=O)CSc1nnc(Cc2ccccc2F)n1N)C1CCS(=O)(=O)C1 (stereo unspecified),-0.2,-6,106,8,125,i,0.97
Cc1oc(-c2ccccc2F)nc1CN1CCC(C(=O)NC2CCCCCCC2)CC1,-2.6,5,99,.,.,.,.
O=C(COC(=O)c1cccnc1Cl)c1ccc(Cl)cc1Cl,-1.5,-7,80,-42,110,i,0.96
CS(=O)(=O)N(CC(=O)NCC1CCCO1)c1cc(Cl)ccc1Cl (stereo unspecified),-2.8,0,102,0,66,i,0.91
CCOc1ccc(C2C=C(c3ccc(F)cc3)Nc3ncnn32)cc1 (stereo unspecified),-0.8,-8,113,0,170,?,.
NC(=O)C1CCN(C2OC(=O)c3ccccc32)CC1 (stereo unspecified),-2.3,-6,100,0,78,i,1.1
CCc1ccc(N(C(=O)c2csnn2)C(C(=O)NC(C)(C)C)c2ccncc2)cc1 (stereo unspecified),-0.2,1,105,-18,80,i,0.99
COCc1nnc(NC(=O)c2sc3ccccc3c2Cl)s1,-3.0,-7,97,47,92,i,0.67
Cc1csc(/C(=N\O)c2csc(C)n2)n1,-2.1,-3,102,.,.,i,0.99
Cc1ccc(C)c(C(=O)COc2ncnc3ccccc23)c1,.,-1,113,-18,148,i,1.2
COc1ccc2c(C)nc(Nc3nc(C)c(C)c(=O)[nH]3)nc2c1,-1.8,3,101,30,134,i,0.55
[O-]/[N+](=C\C=C\c1ccccc1)c1ccccc1,.,.,104,.,.,i,0.94
COc1ccccc1N1CCN(C(=O)C2C3C=CC4(CN(Cc5ccccc5Cl)C(=O)C24)O3)CC1 (stereo unspecified),-0.4,15,105,.,.,i,0.81
CC(=O)c1ccc(NS(=O)(=O)c2cccc(C)c2)cc1,-1.1,3,114,71,118,i,0.94
CN(CC(=O)OCC(=O)c1c(N)n(C)c(=O)n(C)c1=O)S(=O)(=O)c1ccc(Cl)cc1,0.5,-9,101,.,.,i,1
CCC(c1nnnn1C1CCCC1)N1CCN(Cc2ccccc2)CC1 (stereo unspecified),-0.3,-2,95,17,114,i,0.91
CCOc1ccccc1NC(=O)NC1(C(=O)N2CCN3CCCC3C2)CCCCC1 (stereo unspecified),0.5,-24,100,-7,82,i,0.99
CN(c1ccccc1C(=O)Nc1cccc(C(F)(F)F)c1)S(C)(=O)=O,-2.2,-6,100,-246,55,i,0.98
CC(=O)N1CCN(c2ccc(NC(=O)c3ccc(C(C)(C)C)cc3)cc2)CC1,-0.9,2,106,-5,108,i,0.75
CC1(OC(=O)C2CCCC2)C(=O)C=C2C=C(c3ccsc3)N(CCc3ccccn3)C=C2C1=O (stereo unspecified),.,.,100,.,.,i,1.1
Cc1nnsc1NC(=O)OCc1ccc(C(F)(F)F)cc1,-1.2,6,100,0,77,i,1
Cc1c(NC(=O)c2cnn3c2NC(c2ccccc2)CC3C(F)(F)F)c(=O)n(-c2ccccc2)n1C (stereo unspecified),-1.8,-7,103,20,72,i,0.85
O=C(NC(=S)NCC1CCCO1)c1cccs1 (stereo unspecified),3.1,2,114,0,128,i,1.1
O=C(NC1CC1)C1CC(=O)N(C2CCCCC2)C1 (stereo unspecified),-0.3,-2,99,-3,96,i,0.99
Cc1cccc(NC(=O)CC2C(=O)NCCN2C(=S)Nc2ccccc2)c1 (stereo unspecified),-1.7,12,108,.,.,i,0.81
Cc1ccc(S(=O)(=O)NC(C)C(c2cccs2)N2CCN(c3ccccc3)CC2)cc1 (stereo unspecified),-3.9,2,81,.,.,i,0.88
O=C(CCCCCN1C(=O)c2ccccc2C1=O)NCc1ccccn1,-0.7,-6,100,.,.,i,1
CC1=Nc2cc(C(=O)NCCCOC(C)C)ccc2Sc2ccc(C)cc21,.,-8,100,-172,16,i,0.73
